Bioassay records (PubChem BioAssay)
HPGD block: inhibitors of human 15-hydroxyprostaglandin dehydrogenase (HPGD); AID 894; P15428; Potency, µM, without a hit: at the highest dose activity change, negative = inhibition, most hits filed as inhibitors; purified HPGD, NADH fluorescence kinetic, PGE2 substrate; actives 4.3% (n = 150,000); active = well fitted inhibition curve with a large enough effect (not every such curve was filed as active); inconclusive = small, poorly fitted or top-dose-only effect, or another doubt; inactive = no such curve, though single readings can be large or run the other way;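 further: top concentration of the series not given in the record; plate controls included wells without enzyme; inactives centre near -10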
Target sequence (P15428 whole entry, looked up): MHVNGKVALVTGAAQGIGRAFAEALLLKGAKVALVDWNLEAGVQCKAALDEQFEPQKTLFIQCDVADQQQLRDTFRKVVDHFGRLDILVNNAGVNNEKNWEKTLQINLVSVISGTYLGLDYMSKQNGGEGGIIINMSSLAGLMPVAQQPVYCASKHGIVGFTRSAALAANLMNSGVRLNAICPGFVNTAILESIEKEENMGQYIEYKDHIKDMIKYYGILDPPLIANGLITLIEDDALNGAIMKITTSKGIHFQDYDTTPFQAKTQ
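NADH formation kinetics: reaction with 30 uM PGE2 and 1 mM NAD+ (final), 20 nM enzyme, Tris-HCl pH 8 with Tween 20, after 15 min compound preincubation at room temperature. Fluorescence change, last versus first of five reads.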
Active calls of the source: *; ? = inconclusive; & = joins results of further samples. On the % scale 0 is the no-effect control and ±100 the full control effect; potency means the concentration at half of the fitted maximal effect. These rows are one share of the data, so the mix of outcomes need not match the whole.

| HPGD block | molecule |
| --- | --- |
| -11% | O=C(Nc1ccc(Sc2ccc(Br)cc2)cc1)c1ccco1 |
| -19% | O=C(NCc1ccc(-c2nc3ccccc3s2)cc1)c1ccco1 |
| -1% | CC(=O)c1cc(-c2ccccc2)n(CC(=O)Nc2cccc(C)c2)c1C |
| -11% | O=C(CCCSc1nnc(-c2cccs2)n1CC1CCCO1)c1ccccc1 (stereo unspecified) |
| -16% | CN(c1ccc(OCC(=O)OCC(=O)Nc2ccccc2)cc1)S(=O)(=O)c1cccs1 |
| -9% | O=[N+]([O-])c1cccc(C(=Nc2ccc(Cl)cc2)NO)c1 |
| -13% | O=C(Oc1ccccc1)c1cc2ccccc2o1 |
| -5% | O=C(Nc1ccc(Cl)cc1)C1CCCN(S(=O)(=O)c2cnc[nH]2)C1 (stereo unspecified) |
| 3% | CC(C)C(=O)NC(Nc1ccccc1F)C(Cl)(Cl)Cl (stereo unspecified) |
| -7% | NC[C@@H]1O[C@H](O[C@@H]2[C@H](O[C@@H]3O[C@H](CO)[C@@H](O)[C@@H]3O)[C@@H](O)[C@@H](N)C[C@H]2N)[C@@H](N)[C@H](O)[C@@H]1O |
| -9% | COc1ccc(NC(=O)CN2C(=O)C(C)Oc3ccccc32)c(OC)c1 (stereo unspecified) |
| 1% | CCOC(=O)N1CCN(CCC(=O)Nc2ccc(C)c(Br)c2)CC1 |
| ? | COc1ccc(-c2cc(C(=O)Nc3c(Cl)cc(Cl)cc3Cl)c3ccccc3n2)cc1OC |
| -7% | COCCCN1C(=O)C(=O)/C(=C(/O)c2ccc(C)cc2)C1c1ccccc1 (stereo unspecified) |
| -17% | CCn1c(CSc2ncccn2)nnc1SCC(=O)N1c2ccccc2CC1C (stereo unspecified) |
| -4% | CCCN1CN(Cc2ccccc2)CNC1=S |
| -2% | COC(=O)C1CCN(C(=O)Cc2ccc(Br)cc2)CC1 |
| -8% | O=[N+]([O-])c1cccc(/C=N/Nc2nccnc2Cl)c1 |
| ? | Cc1cc(C)n(C(=O)c2ccc(NC(=O)C3COc4ccccc4O3)cc2)n1 (stereo unspecified) |
| -15% | O=C(CCC(=O)c1ccc(F)cc1)OC1CCOC1=O (stereo unspecified) |
| -17% | COc1cccc(N/C(SCc2cccc([N+](=O)[O-])c2)=C(/C#N)C(=O)NCc2cccs2)c1 |
| -5% | COc1ccccc1NC(=S)NNC(=O)c1ccc(O)cc1 |
| -10% | CCN=C1SC(CC(=O)Nc2ccc(C(F)(F)F)cc2)C(=O)N1CC (stereo unspecified) |
| -1% | Cc1ccc(C)c(N(CC(=O)NN=C2CCCCCCC2)S(C)(=O)=O)c1 |
| -10% | CC(C)(C)CC(=O)Nc1cccc2c1CCCC2 |
| -5% | O=C(CCn1c(=O)[nH]c2ccccc2c1=O)N1CCN(c2ccc(Cl)cc2)CC1 |
| 32µM* | CCN(CC)c1ccc(/C=N/Nc2ccc(C)cc2)c(O)c1 |
| -4% | COC(=O)NCc1ccc(CNC(=O)OC)cc1 |
| -11% | CCC(Sc1nc2c(c(=O)[nH]1)CCC2)C(=O)Nc1cccc(OC)c1 (stereo unspecified) |
| 2% | CCSc1nc(O)cc(=O)n1-c1ccc(OC)cc1 |
| -5% | Cc1ccc(C(=O)NCCc2nnc3ccc(SCC(=O)Nc4c(C)cc(C)cc4C)nn23)cc1 |
| -7% | Cc1ccc(C=C2C(=O)c3ccccc3C2=O)o1 |

Among those listed so far, three have fluorine.
| HPGD block | molecule |
| --- | --- |
| 3% | CC(C)C(=O)NC(Nc1ccccc1F)C(Cl)(Cl)Cl (stereo unspecified) |
| -15% | O=C(CCC(=O)c1ccc(F)cc1)OC1CCOC1=O (stereo unspecified) |
| -10% | CCN=C1SC(CC(=O)Nc2ccc(C(F)(F)F)cc2)C(=O)N1CC (stereo unspecified) |

(more compounds)
| HPGD block | molecule |
| --- | --- |
| -16% | COc1ccc(CCn2c(NCc3ccco3)nc3c2c(=O)[nH]c(=O)n3C)cc1 |
| 3% | COc1ccc(CCNC(=O)C2CCCN(S(=O)(=O)c3cnc[nH]3)C2)cc1OC (stereo unspecified) |
| -9% | COc1ccc(C(=O)NCc2oc(-c3ccccc3)cc2C(=O)O)cc1 |
| -7% | CC1CCc2cc(F)ccc2N1C(=O)CCC(=O)O (stereo unspecified) |
| ? | N#Cc1ccc(-c2ccc(F)cc2)nc1Oc1ccccc1 |
| 25µM* | COc1ccc(OCCCC(=O)NCC(C)C)cc1 |
| -4% | O=C(NCc1ccccn1)c1cccc(NS(=O)(=O)c2ccccc2F)c1 |
| ? | COc1ccc(OC)c(-n2c(-c3ccc(S(C)(=O)=O)cc3)cc(C=O)c2C)c1 |
| -3% | Cc1ccc(NC(=O)COC(=O)c2cccc3c2C(=O)c2ccccc2C3=O)c(C)c1 |
| -4% | COc1ccccc1NC(=S)NCc1ccccn1 |
| -4% | O=C(CCCCCCCCCCCCC1CCCC1)Nc1ccc(S(=O)(=O)c2ccc(NC(=O)CCCCCCCCCCCCC3CCCC3)cc2)cc1 |
| ? | COc1ccc(-c2noc(CSc3nc(-c4ccccc4)cc(=O)[nH]3)n2)cc1OC |
| -21% | CCCSc1nc2c(c(=O)[nH]c(=O)n2C)n1CCc1ccccc1 |
| ? | Cc1ccc(-n2nc(C(=O)NCc3ccc(C)o3)c3c4ccccc4n(C)c3c2=O)cc1 |
| -16% | O=C(N1CCN(c2ccccc2F)CC1)C12CC3CC(CC(C3)C1)C2 |
| -11% | CC1(C)[C@@H]2CC[C@]1(C)[C@@H](OC(=O)CSC#N)C2 |
| -18% | Cc1cc(Br)c(Cl)cc1NC(=O)CN1C(=O)C2C3CC(c4ccccc4)C(C3)C2C1=O (stereo unspecified) |
| -17% | O=C1C2CC=CCC2C(=O)N1c1ccc(NCCc2ccc(Cl)cc2)c([N+](=O)[O-])c1 (stereo unspecified) |
| 2% | CCC(N)C12CC3CC(CC(O)(C3)C1)C2 (stereo unspecified) |
| -27% | CN(C)S(=O)(=O)N1CCN(c2cc(Cl)ccc2Cl)CC1 |
| ? | COc1ccc(/C=C/C(=O)NC(=S)NNC(=O)Cc2cccs2)cc1OC |
| ? | CCC(C)NC(=O)CNC(=O)Cn1c(C)cc2ccccc2c1=O (stereo unspecified) |
| 0% | O=C1C2C3c4ccccc4C(c4ccccc43)C2C(=O)N1c1cccc2cccnc12 (stereo unspecified) |
| -4% | COC(=O)c1nn(-c2ccc(C)cc2)c2nnc(Cc3ccccc3)c(=O)n12 |
| -15% | CCCOc1ccc(C2/C(=C(\O)c3c(C)[nH]c(C(=O)OC)c3C)C(=O)C(=O)N2CCN(C)C)cc1 (stereo unspecified) |
| -21% | O=C(O)CNc1nc(-c2ccccc2)c2cc([N+](=O)[O-])ccc2n1 |
| -22% | CN1CCN(C(=O)c2ccc3c(c2)NC(=O)C(N2CCOCC2)S3)CC1 (stereo unspecified) |
| -8% | O=C1CN(c2ccc(Cl)cc2)C2(CCCCC2)S1 |
| -5% | Cc1cc(S(=O)(=O)NCC(C)C)ccc1OCC(=O)NCC1CCCO1 (stereo unspecified) |
| -9% | Cc1noc(C)c1CSc1nnc(-c2ccccc2F)n1CCc1ccccc1 |
| -3% | NC(CC(=O)O)c1ccc(Br)cc1 (stereo unspecified) |
| 0% | Cc1ccc(C)c(N(C)C(=O)c2coc(=O)c3ccccc23)c1 |
| 1% | Cc1cccc(C)c1NC(=S)N(C)CCc1ccccn1 |
| -15% | Cc1cccc(-c2noc(-c3ccc(F)cc3)n2)c1 |
| -9% | c1ccc(Cn2nnnc2-c2ccco2)cc1 |
| -11% | O=C(C1CCCN(S(=O)(=O)c2ccc(Br)s2)C1)N1CCCCCC1 (stereo unspecified) |
| -11% | CCCn1c(CCNC(=O)c2cccs2)nc2ccccc21 |
| -4% | Cc1ccc(NC(=O)c2cc(S(=O)(=O)NCCC3=CCCCC3)ccc2F)cc1F |
| ? | O=C(Cn1nnc2c(cnn2-c2ccccc2)c1=O)NCc1cccs1 |
| ? | C=CCn1c(CNC(=O)c2cccs2)nnc1SCC(=O)c1ccc(Br)cc1 |
| -2% | Cc1occc1-c1nnc(SCC(=O)Nc2nc(-c3ccccc3)cs2)o1 |
| 0% | O=C(CS(=O)CC(=O)N(c1cccc(F)c1)C(C(=O)NC1CCCCC1)c1ccco1)Nc1ccc(F)cc1 (stereo unspecified) |
| -7% | COc1ncnc2c1oc1nc(CC(C)C)c3c(c12)CCCC3 |
| -10% | CCCc1[nH]nc2c1C(c1ccc(O)c(OC)c1)C(C#N)=C(N)O2 (stereo unspecified) |
| ? | CCC(C)(C)n1nnnc1C(C(C)C)N(Cc1ccco1)Cc1cc2cc3c(cc2[nH]c1=O)OCO3 (stereo unspecified) |
| -3% | c1cncc(CNCc2cccnc2)c1 |
| -16% | O=C(NCc1ccccn1)c1cccc(NS(=O)(=O)c2cccc(F)c2)c1 |
| -13% | CCOC(=O)c1ccc(COc2nc3ccccc3nc2-c2ccccc2NC(C)=O)o1 |
| -11% | Cc1cccc(C2=N/C(=C\c3cccnc3)C(=O)O2)c1 |
| -2% | COCCNC(=O)C(c1ccccc1C)N(CCOC)C(=O)Cn1nnc2ccccc21 (stereo unspecified) |
| -10% | CCOc1cc(NC(=S)NCCCN2CCOCC2)c(OCC)cc1NC(=O)C(C)C |
| -12% | Cc1ccc(-n2nnnc2SCC(=O)Nc2sccc2C#N)cc1 |
| -10% | CCN1C(=O)c2ccccc2S(=O)c2ccc(C(=O)NCCCN3CCCC3=O)cc21 (stereo unspecified) |
| -5% | Cc1cccc(NC(=O)Nc2nnc(N3CCCCC3C)s2)c1C (stereo unspecified) |
| -23% | CCCCOc1ccc(/C(O)=C2/C(=O)C(=O)N(Cc3cccnc3)C2c2ccncc2)c(C)c1 (stereo unspecified) |
| ? | Cc1cc(C)c2c(n1)sc1c(-c3ccccc3)c(C#N)c(N)nc12 |

New compounds follow.
| HPGD block | molecule |
| --- | --- |
| -7% | COc1ccc(OCC(=O)Nc2cc(OC)cc(OC)c2)cc1 |
| -14% | CC(C)P(=O)(Cc1cccc(C#N)c1)C(C)C |
| -6% | O=C(Nn1c(-c2ccc(F)cc2)nc2ccccc2c1=O)C1CCCCC1 |
| -3%&-15% | O=C(O)c1cc(N=Nc2ccc([N+](=O)[O-])cc2)ccc1O |
| -26% | COc1cc(-c2nnc3sc(-c4ccco4)nn23)cc(OC)c1OC |
| -2% | CN(C)S(=O)(=O)N(CC(=O)NCc1ccccc1)c1ccccc1 |
| ? | C=CCC1CCCCC12NC(=O)NC2=O (stereo unspecified) |
| -24% | Nc1nc(SCC(=O)Nc2ccccc2)nc2nc3c(cc12)CCCC3 |

A second format for 2 compounds above:
C=CCC1CCCCC12NC(=O)NC2=O (stereo unspecified)
  HPGD block: ?

Nc1nc(SCC(=O)Nc2ccccc2)nc2nc3c(cc12)CCCC3
  HPGD block: -24%

In a second layout: results already given.
smiles	HPGD block
O=C(O)c1cc(N=Nc2ccc([N+](=O)[O-])cc2)ccc1O	-3%&-15%
COc1cc(-c2nnc3sc(-c4ccco4)nn23)cc(OC)c1OC	-26%
CN(C)S(=O)(=O)N(CC(=O)NCc1ccccc1)c1ccccc1	-2%
C=CCC1CCCCC12NC(=O)NC2=O (stereo unspecified)	?

Next part:
| HPGD block | molecule |
| --- | --- |
| -10% | Cn1cccc1C(=O)N1CCC2(CCCN(Cc3ccncc3)C2)CC1 |
| -8% | COCC(COCCCNC(=O)Nc1ccc(Br)cc1)OC (stereo unspecified) |
| -6% | Cc1cccc(C(=O)NNC(=O)c2ccc(-c3ccccc3)cc2)c1 |
| -19% | c1ccc2c(c1)nc(NC1CCCCC1)c1nncn12 |
| -9% | O=C(CNc1ccc2c(c1)OCO2)N/N=C\c1ccccc1Cl |
| -16% | Cc1sc(NC(=O)c2ccc(Cl)s2)c(C(N)=O)c1C |
| ? | COc1ccc(NC(=O)N2c3ccc(OC)cc3C(C)=CC2(C)C)cc1 |
| -14% | CC1(C)CC(=O)C(N=Nc2ccc(Cl)cc2)=C(O)C1 |
| -14% | CCc1sc(N)nc1-c1ccccc1 |
| ? | Cc1ccc2oc(=O)c3cc(C(=O)NCCN4CCc5ccccc5C4)sc3c2c1 |
| -14% | O=C(Nc1nccs1)c1cccc(S(=O)(=O)N2CCOCC2)c1 |
| 1% | COc1ccc(NC(=O)C2CC(=O)NC3=C2C(=O)CC(C)(C)C3)cc1 (stereo unspecified) |
| 18µM* | CCNc1ccccc(C(=O)/C=C/c2ccc3c(c2)OCO3)c1=O |
| -7% | COc1ccc(CCNC(=O)c2ccccc2N(C)S(=O)(=O)c2ccccc2)cc1 |
| -9% | Nc1c(C(=O)NCCc2ccccc2)nnn1Cc1ccc(Cl)cc1 |
| -4% | COc1ccc(-c2nnn(CC(=O)N(CC(=O)NC3CCCC3)c3cccc(C)c3)n2)cc1OC |
| -27% | O=C(O)c1ccc2c(c1)OCO2 |
| -4% | O=C(NCCCN1CCN(CCCNC(=O)c2ccccc2F)CC1)c1ccccc1F |
| -14% | CCN(CC)S(=O)(=O)c1ccc(NC(=O)c2c(-c3ccccc3)noc2C)cc1 |
| -17% | CCCOc1ccc(Cn2c(C)nc([N+](=O)[O-])c2SCC(O)COC)cc1[N+](=O)[O-] (stereo unspecified) |
| 1% | C=CC1=C2C=C(C3CC3)N(CCCCO)C=C2C(=O)C(C)(OC(=O)c2ccco2)C1=O (stereo unspecified) |
| -12% | Cc1cc(C)c(OCCOCCN(C)C)c(Br)c1 |
| -10% | COc1cc(NC(=O)CCc2ccccc2)nc(OC)n1 |
| -1% | O=C(CCn1c(=S)[nH]c2ccccc2c1=O)NCCCN1CCCC1=O |
| -1% | CC(=O)c1ccc(NC2OC(CO)C(O)C(O)C2O)cc1 (stereo unspecified) |
| -17% | COc1cccc(CNc2nn[nH]n2)c1OC |
| -12% | OCCN(CCO)c1ncnc2nc[nH]c12 |
| -22% | CCCCNC(=O)CCCCCNS(=O)(=O)c1ccc(OC)cc1 |
